# From PubChem
# Sfp PPTase inh – inhibitors of Bacillus subtilis Sfp phosphopantetheinyl transferase; AID 1490; Potency, µM, for the others: max response, negative = inhibition, most hits filed as inhibitors; 310,000 compounds, 3.5% hits; Biochemical Sfp PPTase activity, qHTS; Q9F4F7; active = well fitted inhibition curve with a large enough effect; inconclusive = small, poorly fitted or top-dose-only effect, or another doubt; inactive = no such curve, though single readings can be large or run the other way;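 note: the enzyme is Sfp with the accession as filed and its product quenches rhodamine fluorescence; potency is the fitted concentration of half-maximal effect; 0% = enzyme reaction without inhibitor and -100% = no enzyme wells; top concentration of the series not given in the record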
#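 Step 1, compound plus 15 nM Sfp-PPTase, 15 min, room temperature. Step 2, add rhodamine-CoA (5 uM) and BHQ-2-YbbR (12.5 uM). Step 3, read 525/598 nm fluorescence at 0 and 30 min.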
# PINK1 expr mod – changes PINK1 expression; PINK1 immunofluorescence, high-content cytometry, 24 h; Potency, µM (top dose mostly 76.6 µM), for inactives: top-dose activation (PINK1 increase), actives largely listed as activators; 410,000 compounds, 0.2% hits; AID 624263; active = well fitted activation curve with a large enough effect; inconclusive = small, poorly fitted or top-dose-only effect; inactive = flat fitted curve, though single readings scatter; cell line not stated here;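 note: potency is the fitted concentration of half-maximal effect; % of control where 0% means no effect; nearly all actives have a fitted effect of over 65% in size; a mitochondrial uncoupler was the plate control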
#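 PINK1 protein level read as immunofluorescence by microplate cytometer in a fixed, stained stable cell line after 24 h exposure to five compound concentrations, with CCCP as control.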
# D2 agonist – human D2 receptor agonism in beta-arrestin assay; 360,000 compounds, 0.084% hits; AID 624465; P14416; activation, % (concentration not given with the values); DiscoveRx PathHunter D2 beta-arrestin, luminescence, 90 min; 100% = 57 uM dopamine signal; in the data active = activation above about 40%; inconclusive = about 15% to 40%; inactive = below about 15%; note: the text of the record calls up to 30% inactive
#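 DiscoveRx PathHunter D2 beta-arrestin cells (2,100/well) attached overnight, then compound-stimulated 90 min at 37 C in HBSS/10 mM HEPES/0.1% Tween-20 buffer; beta-galactosidase complementation read by luminescence after 1 h at ambient temperature. Dopamine 57 uM final (EC100) as control.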
# Six1-Eya2 inh – inhibitors of human Six1/Eya2 interaction | 360,000 compounds, 0.56% hits | AlphaScreen GST-Six1/His-Eya2 binding, biochemical; stronger effect = lower value; control for the full effect not named in the record | activity change, % (concentration not given with the values); in the data active = activity change below about -65%; inconclusive = about -30% to -65%; inactive = above about -30%; note: % is set by controls: 0 for no effect and ±100 for the full control effect
# Target sequence (O00167 whole entry, looked up): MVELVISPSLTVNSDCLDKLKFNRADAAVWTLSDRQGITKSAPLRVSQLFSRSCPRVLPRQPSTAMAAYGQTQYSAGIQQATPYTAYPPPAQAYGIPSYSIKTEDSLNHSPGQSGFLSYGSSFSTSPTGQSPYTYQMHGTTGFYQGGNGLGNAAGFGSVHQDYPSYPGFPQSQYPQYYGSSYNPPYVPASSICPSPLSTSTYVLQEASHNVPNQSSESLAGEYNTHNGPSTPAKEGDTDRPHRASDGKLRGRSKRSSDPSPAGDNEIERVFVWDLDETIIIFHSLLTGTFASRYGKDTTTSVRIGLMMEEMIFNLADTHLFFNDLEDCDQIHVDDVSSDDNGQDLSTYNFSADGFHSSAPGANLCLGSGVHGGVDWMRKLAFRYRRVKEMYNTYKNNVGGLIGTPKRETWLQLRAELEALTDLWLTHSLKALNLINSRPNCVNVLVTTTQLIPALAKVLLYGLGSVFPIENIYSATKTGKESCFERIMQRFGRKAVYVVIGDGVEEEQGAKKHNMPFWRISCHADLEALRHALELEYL
# Target sequence (Q15475 whole entry, looked up): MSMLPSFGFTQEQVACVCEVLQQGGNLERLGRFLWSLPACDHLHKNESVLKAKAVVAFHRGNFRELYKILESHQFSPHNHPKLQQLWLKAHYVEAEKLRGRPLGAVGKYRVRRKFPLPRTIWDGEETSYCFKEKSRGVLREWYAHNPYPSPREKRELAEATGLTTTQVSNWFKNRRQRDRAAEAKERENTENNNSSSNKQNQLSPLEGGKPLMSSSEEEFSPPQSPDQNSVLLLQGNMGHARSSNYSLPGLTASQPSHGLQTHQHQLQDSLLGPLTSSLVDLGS
#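 AlphaScreen with GST-Six1 and His-Eya2 (5X mix: 250 nM and 500 nM), glutathione donor and nickel acceptor beads; buffer 50 mM Tris pH 8.0, 300 mM NaCl, 1 mM TCEP; 1 h at 37 C in the dark.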
# TRPV1 potentiator – enhances activation of the human vanilloid receptor TRPV1; Q8NER1; TRPV1-expressing cells, Fluo-8 calcium influx, capsaicin EC20 potentiation; host cell line not named in the record; control for the full effect not named in the record; potentiation, % at 8.33 µM; 320,000 compounds, 0.02% hits; AID 540277; active means potentiation above 80%; inconclusive means 30% to 80%; inactive means below 30%; note: 0% is about no effect
#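 Fluo-8 calcium influx in TRPV1-expressing cells, kinetic read (ex 480/em 520 nm). Compound added and read 3 min for agonist activity, followed by capsaicin at EC20 final and 2 min further read for enhancement.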
# D2 potentiator – potentiates the human D2 dopamine receptor allosterically; P14416; DiscoveRx D2 beta-arrestin cells, luminescence, 90 min; 100% = 57 uM dopamine signal; potentiation, % (test concentration not listed); 360,000 compounds, 0.23% hits; active = potentiation of 50% or more; inconclusive = 30% to 50%; inactive = 30% or less;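 note: compound concentration not given in the record; tested on top of an EC20 dose of dopamine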
#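 PathHunter beta-arrestin assay in DiscoveRx D2 cells. Compounds were added with an EC20 of dopamine (50 nM final) for 90 min at 37 deg C. Luminescence was read 1 h after detection reagent, with 57 uM dopamine as the EC100 control.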
# CtBP-E1A inh – inhibitors of CtBP/E1A interaction; AlphaScreen GST-E1A/His-CtBP binding, 1536-well; stronger effect = lower value; control for the full effect not named in the record; activity change, % (test concentration not listed); 340,000 compounds, 0.49% hits; AID 651724; in the data active means activity change below about -65%; inconclusive means about -30% to -65%; inactive means above about -30%; note: % is set by controls: 0 for no effect and ±100 for the full control effect
#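 In 5 uL wells, 23 nL compound meets equimolar GST-E1A and His-CtBP (5X stock 125 nM each) for 2 h, 37 °C. Beads (5X, 50 ug/mL) then 1 h, 37 °C, dark.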
# The depositor's hits bear a star; ? = inconclusive; / = no result given; [ ] = remark or other dose.
SMILES,Sfp PPTase inh,PINK1 expr mod,D2 agonist,Six1-Eya2 inh,TRPV1 potentiator,D2 potentiator,CtBP-E1A inh
CC(C)c1ccc(NC(=O)COC(=O)COc2ccccc2)cc1,4%,0.2%,-0.1,-5,3,-5,10
Cc1ccc(S(=O)(=O)N2CCC(NC(=O)c3cccnc3)CC2)cc1Cl,12%,-1.9%,2.8,5,-2,-3,-9
O=C1/C(=C/c2cccs2)CCC1C1CCCC1 (stereo unspecified),15%,4.2%,-3.8,1,-3,-9,-8
O=C(c1ccccc1)N1CCN(S(=O)(=O)c2cccc(NS(=O)(=O)c3ccccc3)c2)CC1,-15%,0.3%,-0.7,1,8,-7,-1
CCc1ccc(-c2cc(C(=O)N/N=C/c3ccco3)[nH]n2)cc1,27%,2.4%,6.1,-6,3,21,-22
COc1ccc(C2N(C(C)=O)CCN2S(=O)(=O)c2ccc(C)cc2)cc1 (stereo unspecified),7%,-4.4%,-1.8,3,-4,-7,-24
CCCC/S(CC1CC1(Cl)Cl)=N\S(=O)(=O)c1ccc(C)cc1 (stereo unspecified),3%,1.1%[38.3 µM],-3.8,26,-11,-10,37
COc1ccccc1NC(=O)C1=C(C)N(c2ccccc2)C(=S)NC1c1cccc(C(F)(F)F)c1 (stereo unspecified),-8%,2.1%[38.3 µM],-3.3,-13,4,-12,-17
Cc1cccnc1NC(=O)c1cccc(S(=O)(=O)N2CCCc3ccccc32)c1,11%,4.8%,-1.7,1,-2,-24,-15
S=C(NNc1nc(Nc2ccccc2)nc(N2CCCCC2)n1)NC1CCCCC1,18%,8.8%,0.5,-2,-1,-7,16
C=CCn1c(SCC2CCCCO2)nc2sc(CC)cc2c1=O (stereo unspecified),8%,?,-0.1,6,-14,-7,-4
COc1ccc(C(=O)O/N=C(\N)c2ccccn2)cc1[N+](=O)[O-],10%,2.9%,42*,?,1,?,-4
CCOC(=O)C(=O)Nc1ccccc1C(N)=O,17%,1.4%,-3.7,1,-1,-6,-4
CCOC(=O)CNS(=O)(=O)c1ccc(C(=O)O)cc1,11%,-0.7%,-0.8,1,-7,-1,4
COc1cc(NC(=O)N[C@H](C(=O)O)C(C)C)cc(OC)c1,22%,2.4%[38.3 µM],2.7,3,6,-2,4
CCCCCCNC(=O)O[C@H]1Cn2c(=O)ccc(=O)n2[C@@H]2CN(S(=O)(=O)c3ccc(C)cc3)C[C@]12O,/,-1.0%,-4.0,8,/,-3,-3
O=C(NCCCn1ccnc1)c1c(F)cccc1F,15%,-0.8%,0.8,4,-12,-26,0
CC(C)N(C(=O)[C@H]1CC(CC(=O)NCc2ccco2)C(=O)N2CCc3c([nH]c4ccccc34)[C@]12C)C(C)C (stereo partly specified),/,-0.2%,-0.9,-6,/,/,-2
C[C@H](NC(=O)c1ccco1)C(=O)OCC(=O)N1CC(=O)Nc2ccccc21,/,-0.9%,-0.9,-3,/,-4,2
CCC(C)NS(=O)(=O)c1ccc(OCC(=O)Nc2ccc3c(c2)OCCO3)cc1 (stereo unspecified),10%,/,-1.1,5,9,-1,9
Cn1c(CN2CCCCC2)nc2cc(NC(=O)c3cccc(Br)c3)ccc21,8%,-0.6%,-2.2,-3,4,-6,-4
Cc1ccc(C(=O)OCC(=O)N2CCCCCC2)c(O)c1,/,1.2%,-5.8,7,-4,-7,/
Cc1cc(NS(=O)(=O)c2ccc(NC(=S)NC(=O)c3ccc(F)cc3Cl)cc2)no1,6%,0.3%,-5.3,-4,3,-6,6
Cc1ccc(O)c(CNc2nccs2)c1,15%,-0.1%,-1.8,3,4,-2,9
Cc1cccc(N(CC(=O)Nc2ccc(CC#N)cc2)S(C)(=O)=O)c1,10%,-0.4%,-1.9,5,-8,-8,-2

# Remaining list, next part.
SMILES,Sfp PPTase inh,PINK1 expr mod,D2 agonist,Six1-Eya2 inh,TRPV1 potentiator,D2 potentiator,CtBP-E1A inh
CCCCn1c(N)c(N(CCOC)C(=O)c2ccc(F)c(S(=O)(=O)N3CCOCC3)c2)c(=O)[nH]c1=O,/,1.6%,-2.4,4,23,7,9
O=C(NCc1nc2ccccc2[nH]1)C1=C[C@H](c2ccc(C(F)(F)F)cc2)C[C@H](OCc2ccc(CO)cc2)O1,8%,11%,0.5,3,-6,-9,-5
COc1cccc(NC(=O)CCc2ccccc2)c1,/,-0.1%,-7.5,6,9,-5,7
CC(C)CNC(=S)N(CCCO)Cc1cc2cc3c(cc2[nH]c1=O)OCO3,-4%,1.1%,4.4,-5,26,16,2
COc1ccc(C(=O)N2CCN(c3ccc(NC(=O)c4cccs4)cc3)CC2)cc1,0%,1.0%,3.1,3,7,24,-2
CCOc1cc(C(=O)OCC(=O)NC(C)c2ccccc2)ccc1OCC(=O)N1CCOCC1 (stereo unspecified),1%,-0.4%,-4.7,1,-6,-4,-6
CCCN(CCC)CCCNC(=O)c1cc2cc3ccc(Cl)cc3nc2o1,13%,-1.3%,-5.5,-9,1,-6,1
COC(=O)[C@@]12CCCCN1[C@H](c1ccc(-c3cccc(Cl)c3)c(OC)c1)[C@H]1C(=O)N(C)C(=O)[C@H]12,/,1.4%,-1.3,4,-9,-35,0
CCc1ccc2c(CC(=O)Nc3nnc(C4CC4)s3)coc2c1,7%,1.8%,5.4,3,-18,1,-3
CC1(C(=O)NS(=O)(=O)c2ccc3c(c2)CCO3)CCN1C(=O)CCC1CCCC1 (stereo unspecified),/,0.1%,-2.1,13,/,-2,8
CC(C)(C)c1ccc(NC(=O)C2=CN3CCS(=O)(=O)N=C3C=C2)cc1,/,0.9%,6.9,4,1,-3,4
CC1=CC(C)(C)Nc2ccc(C)cc21,45µM*,1.2%[38.3 µM],-2.2,-13,4,1,0
Cc1nccn1CCCN1C(=O)OC2(CCCCC2)C1(C)O (stereo unspecified),11%,4.7%,-2.0,-3,-2,-21,6
Cn1nnc(NC(=O)c2ccc([N+](=O)[O-])cc2Cl)n1,-14%,0.4%,-1.1,6,-5,5,7
CC(=O)Oc1ccc2nc(-c3ccco3)oc(=O)c2c1,8%,-0.4%,1.9,-8,7,-1,0
c1ccc(-c2nnc(CSc3nncs3)o2)cc1,10%,-1.7%,-2.7,0,-4,-3,1
Cc1c(-c2ccccc2)c(=O)oc2cc(O)ccc12,17%,0.9%,2.2,-1,-7,-2,0
CCOc1ccccc1N(CC)C(=O)c1nn(C)c2c1CSc1ccccc1-2,-12%,28%,-1.7,-16,-11,-29,-17
O=C(C1CCCO1)N1CCN(C(=S)Nc2ccc(Cl)cc2Cl)CC1 (stereo unspecified),-4%,-1.1%,-1.8,6,-3,-3,3
O=C(COC(=O)c1ccc(F)cc1F)Nc1cc(S(=O)(=O)N2CCOCC2)ccc1Cl,/,-2.2%,-1.3,1,-3,-10,3
CC(=O)c1ccc(OC(=O)N(c2ccccc2)c2ccccc2)cc1,-1%,-1.2%,-0.8,15,3,-12,6
CCOC(=O)N1CCC(NC(=O)c2ccc3c(c2)N(Cc2ccc(F)cc2)CCS3)CC1,1%,0.3%,-4.6,-14,4,-3,-9
CC(=O)Nc1ccc(NC(=O)Nc2cc(C)cc(C)c2)cc1,2%,12%,6.8,-3,-8,-4,-2
CCn1c(SCC(=O)N2CCCc3ccccc32)nc2cccnc21,15%,0.0%,1.1,3,-11,-3,-1
Cc1sc2ncnc(NCC3(N4CCOCC4)CCCCC3)c2c1C,-10%,-0.3%,-2.4,2,-2,-3,9

# Following part
SMILES,Sfp PPTase inh,PINK1 expr mod,D2 agonist,Six1-Eya2 inh,TRPV1 potentiator,D2 potentiator,CtBP-E1A inh
CCCc1nnc(NC(=O)CCC(=O)Nc2ccc(F)cc2)s1,11%,?,-1.4,2,7,-5,11
CSc1cccc(CN2CCCC(C(=O)Nc3cccc(-n4cccn4)c3)C2)c1 (stereo unspecified),8%,2.2%,-3.8,-10,11,-31,-19
Cc1ccc(C23CC4CC(CC(C(=O)N(C)C)(C4)C2)C3)cc1,5%,2.2%,1.7,-3,-13,-7,9
O=C(c1ccccc1)N(CCO)Cc1cc2cc3c(cc2[nH]c1=O)OCCO3,21%,4.4%,1.5,0,4,-3,/
CC1CCCC(NC(=O)CN2CCN(Cc3ccc(Cl)cc3)C2=O)C1C (stereo unspecified),16%,15%,-3.1,1,-4,-14,5
O=C(/C(=C/c1ccccc1Cl)c1ccccc1)N1CCOCC1,6%,2.2%,-0.5,12,-19,-13,-4
CCOC(=O)c1cc2cc([N+](=O)[O-])cc(OC)c2oc1=O,8%,0.1%,-3.8,9,-4,-10,-9
CC(C)(C)CN1C(=O)C(=O)NC[C@@H]1CC1CCCCC1,/,-0.3%,/,22,/,/,-25
CCOc1ccc(S(=O)(=O)N(C)c2ccc(OCC(=O)Nc3nc4ccccc4s3)cc2)cc1,24%,-1.6%,3.0,2,-1,-5,-6
COc1ccccc1/C=C/C=N/NC(=O)c1cc(-c2ccco2)[nH]n1,13µM*,0.2%,1.0,-25,7,-9,-6
COc1cccc(C(=O)NCC(=O)OC(C)C(=O)NC23CC4CC(CC(C4)C2)C3)c1 (stereo unspecified),/,0.1%,-5.3,-5,/,-25,-3
CC1CCN(S(=O)(=O)c2ccc3c(c2)CCN3C(=O)C2CCC2)CC1,10%,2.0%,-12,19,-19,5,5
CCOc1ccccc1N(CC(=O)N1CCC(C)CC1)S(=O)(=O)c1ccc(C)cc1,4%,0.1%,-4.9,4,-30,-18,18
C=C(C)CNC(=O)c1ccc(OC2CCN(C(=O)COC)CC2)cc1,/,0.8%,1.6,9,/,0,-10
COc1ccc(NC(=O)NNC(=O)COc2ccc([N+](=O)[O-])c(C)c2)cc1OC,9%,-0.5%,-1.8,1,?,-8,-6
Cc1c(CCC(=O)NCCCCCC(=O)O)c(=O)oc2c(C)c3oc4c(c3cc12)CCCC4,-6%,-0.1%,2.6,-26,-6,-2,/
Cc1cccc2cccnc12,/,0.0%,-3.1,7,3,6,4

# Some of these compounds in order of molar mass, descending.
SMILES,Sfp PPTase inh,PINK1 expr mod,D2 agonist,Six1-Eya2 inh,TRPV1 potentiator,D2 potentiator,CtBP-E1A inh
Cc1cccnc1NC(=O)c1cccc(S(=O)(=O)N2CCCc3ccccc32)c1,11%,4.8%,-1.7,1,-2,-24,-15
CC(C)c1ccc(NC(=O)COC(=O)COc2ccccc2)cc1,4%,0.2%,-0.1,-5,3,-5,10
COc1ccc(C(=O)O/N=C(\N)c2ccccn2)cc1[N+](=O)[O-],10%,2.9%,42*,?,1,?,-4
